RanGTP-Imp inh: disruptors of Ran-importin-beta complex formation – biochemical, FRET, CFP-Ran, YFP-importin-beta, homogeneous, primary screen; cell-free CFP-Ran/YFP-importin-beta FRET ratio; inhibition, % (concentration not given with the values); AID 2216; hit rate 1.1% among 300,000;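 active = most replicates above 15%; inconclusive = exactly half above 15%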;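 note: 0% = DMSO wells and 100% = Ran loaded with GDP instead of GTP; wells of about 40 µL received 100 nL stock; the first replicate is given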
T cruzi repl: blocks replication of Trypanosoma cruzi; T. cruzi beta-gal in NIH3T3, luminescence, 90 h; inhibition, % (no concentration beside the values); hit rate 1.4% among 300,000;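 active = mean inhibition across valid replicates above about 55%, limit read from the data; inconclusive = mean below that limit but half or more replicates reach it; inactive = mean below it, under half of replicates reach it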;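 note: signal also drops with host cell toxicity which is not excluded here; 0% = plate median of DMSO wells and 100% = zero luminescence signal; higher percent means less beta-gal luminescence so fewer parasites; stock transfer was 50 nL into about 50 µL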
AF4-AF9 inh: MLL-AF4/AF9 protein interaction inhibition | AID 651704 | hit rate 0.47% among 350,000 | inhibition, % at 10 µM | AlphaScreen, biotin-AF4 peptide binding to FLAG-AF9;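 active = every replicate reaching a set inhibition limit, whatever the replicate mean, cut at about 25% in these data; inconclusive = mean inhibition reaches that limit but some replicates miss it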;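 note: 0% = plate neutral control median and 100% = total signal loss; the record names both 10 and 1 µM as test concentration; the first replicate is given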
Target sequence (P42568 whole entry, looked up): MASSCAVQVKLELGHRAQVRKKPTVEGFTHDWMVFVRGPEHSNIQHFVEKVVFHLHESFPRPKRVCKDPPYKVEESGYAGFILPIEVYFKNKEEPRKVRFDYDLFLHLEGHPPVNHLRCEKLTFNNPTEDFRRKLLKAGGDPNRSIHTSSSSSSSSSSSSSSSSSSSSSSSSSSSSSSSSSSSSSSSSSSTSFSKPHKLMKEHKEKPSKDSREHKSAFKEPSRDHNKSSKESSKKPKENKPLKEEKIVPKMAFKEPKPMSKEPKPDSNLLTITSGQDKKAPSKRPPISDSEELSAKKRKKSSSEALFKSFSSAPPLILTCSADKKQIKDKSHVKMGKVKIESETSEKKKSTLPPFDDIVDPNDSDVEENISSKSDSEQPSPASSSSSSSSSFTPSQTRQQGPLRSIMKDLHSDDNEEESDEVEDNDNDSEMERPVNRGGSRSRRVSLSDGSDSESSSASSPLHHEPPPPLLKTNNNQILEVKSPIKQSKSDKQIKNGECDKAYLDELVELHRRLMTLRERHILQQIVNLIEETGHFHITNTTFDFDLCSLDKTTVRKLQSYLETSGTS
Calb FLC: affects C. albicans growth with fluconazole; C. albicans CaCi-2 (fluconazole-resistant clinical isolate) + fluconazole, Alamar Blue growth, 48 h; growth inhibition, % (test concentration not listed); hit rate 0.57% among 300,000; AID 1979;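 active = most replicates above 75%; inconclusive = exactly half above 75%; inactive = most below 75%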;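 note: all wells also contain fluconazole at 8 µg/ml as a sub-toxic cotreatment; 0% = median of DMSO wells and 100% = median of geldanamycin control wells; wells of about 8 µL received 7.5 nL stock; the first replicate is given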
LANA-H2A inh: blocks KSHV LANA binding to histone H2A/H2B. cell-free LANA-H2A/H2B peptide, fluorescence polarization. inhibition, % (concentration not given with the values). hit rate 0.6% among 320,000. AID 2629; in the data active = inhibition mostly above about 10%, no sharp cut-off; inactive = mostly below about 6.7%;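 note: stock transfer was 7.5 nL into about 10 µL; 0% = median of vehicle wells and 100% = median of positive control wells; one replicate is shown; the record names a cut of 25% in any replicate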
Beta cell apopt: beta cell apoptosis inhibition. INS-1E cytokine-induced death, ATP luminescence, 48 h; percent of positive-control rescue, neutral wells zero. protection from apoptosis, % (concentration not given with the values). hit rate 0.8% among 300,000;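 active = all replicates at 75% or more, or half of them and the mean; inconclusive = half reach 75% but not the mean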;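 note: 0% = cytokine-treated negative control wells and 100% = positive control rescue; higher means more ATP so stronger rescue from cytokine killing; wells of about 40 µL received 100 nL stock; the first replicate is given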
A1 inh: inhibitors of the anti-apoptotic protein A1, read as caspase activation | MEF A1-2A-BIM cells, Caspase-Glo 3/7 luminescence, 3 h; percent of clofoctol response, vehicle zero | hit rate 0.066% among 330,000 | AID 2462 | caspase activation, % (concentration not given with the values);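 active = over half of replicate activation scores above 10%, or exactly half above 10 with the replicate mean above 10; inconclusive = replicate mean below 10 yet half the replicates above 10; inactive = over half of replicates below 10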;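 note: wells of about 30 µL received 50 nL stock; many hits fall short of the cut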
Vif TR-FRET: HIV-1 Vif–A3G interaction blockers – biochemical, TR-FRET, GST-Vif 1-94, biotin-A3G peptide, dose response retest, primary screen (AID 1117319); TR-FRET GST-Vif / biotin-A3G peptide binding; higher % means a stronger effect; test concentration not given here; strong numbers were not always called active; inhibition, %; hits with a dose series show IC50 in µM; hit rate 0.57% among 260,000;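 active = above the screen mean plus three standard deviations and confirmed in dose response; inconclusive = results disagree or hit not tested in dose response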;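 note: Vif residues 1-94 fused to GST binding biotinylated APOBEC3G peptide 110-148; 0% = full assay without inhibitor and 100% = GST in place of GST-Vif; retest series ran down from 100 µM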
Numbers without * were called inactive; ? = inconclusive; . = not tested or not shown; & = joins results of further samples. Compounds were not picked by outcome (roughly 4.3% active in at least one column).

SMILES	RanGTP-Imp inh	T cruzi repl	AF4-AF9 inh	Calb FLC	LANA-H2A inh	Beta cell apopt	A1 inh	Vif TR-FRET
Cc1ccccc1C(=O)c1c[nH]c(C(=O)NCc2cccs2)c1	2.0	-9	.	3	-1.0	-5	0.8	0%
O=C1c2ccccc2C(=O)N1CCn1ccnc1	-2.5	-14	-3.1	9	-1.4	-3	-0.2	.
CCN(CC)c1ccc2c(Nc3ccccc3)c(C=O)c(=O)oc2c1	?	-6	13	-7	-1.4	.	1.5	.
OC(COc1ccc(CNCCc2ccccc2F)cc1)CN1CCCCC1 (stereo not given)	-1.2	39	9.4	-14	0.1	3	-0.3	15%
COc1ccc(C(=O)Nc2ccccc2NC(=O)c2ccc(OC)cc2)cc1	-0.5	-12	-0.3	-7	0.3	11	-0.1	.
COc1ccc(-c2c[nH]c(=O)[nH]c2=O)cc1OC	-0.6	-10	-0.6	8	-12	-6	-0.1	?
Cc1nn(CCC(=O)NNC(=S)Nc2ccc(Cl)cc2)c(C)c1[N+](=O)[O-]	-3.1	-11	.	-2	-2.7	4	0.2	?
CC(C)CN(C(=O)COC(=O)c1cncc(Br)c1)c1c(N)n(Cc2ccccc2)c(=O)[nH]c1=O	-4.7	-5	-2.0	6	-0.6	-2	-0.9	.
CC(=O)Nc1cccc(NC(=O)C2CCCN2C(=O)Nc2ccc(Cl)cc2)c1 (stereo not given)	0.3	4	.	114*	3.4	-4	-0.7	0%
COc1ccccc1NC(=O)CSc1nnc(COc2ccc(Cl)cc2)o1	-0.3	-3	0.7	-18	-1.7	-13	0.1	.
CCn1nc(NS(=O)(=O)c2ccc([N+](=O)[O-])cc2)c2cc3ccccc3nc21	-0.6	-26	1.7	-3	-5.3	.	0.3	.
COc1cccc(-c2csc(N3CCN(CC(=O)NNC(=O)c4ccc(Br)cc4)CC3)n2)c1	-0.5	33	.	-8	4.6	-1	-1.4	-5%
Cc1ccc(C(=O)NN(C)c2nc3ccccc3nc2C(F)(F)F)cc1	1.6	2	.	-6	3.0	.	1.1	5%
CN1/C(=C\C(=S)NC(=O)c2ccccc2Cl)C(C)(C)c2ccccc21	3.7	42	8.4	-9	-5.3	100*	0.0	.
COc1cc(CNCc2ccco2)cc(OC)c1O	5.5	-9	-8.2	15	-1.4	-3	1.0	4%
Cc1ccccc1CN1CCN(S(=O)(=O)c2ccc(F)cc2)CC1	-0.1	17	.	43	-8.3	-4	0.5	?
COc1ccccc1OCc1nnc(SCC(N)=O)n1-c1ccccc1	-1.8	-1	-0.5	-1	-3.3	0	-0.3	.
Cc1ccc(CN(CC(=O)NCCc2ccccc2)C(=O)c2csnn2)cc1	-0.6	4	-1.4	-2	-4.3	-5	-0.4	.
COc1ccc(N2CCN(C(=O)c3ccc(OCc4c(C)noc4C)c(OC)c3)CC2)cc1	2.4	1	.	12	-11	-13	-0.2	-9%&7%
CN(C)c1ccc(CNc2ncnc3sccc23)cc1	-1.3	36	7.8	85*	-8.3	38	-2.3	-1%
O=C(CN(C(=O)Cn1nnc(-c2ccc(F)cc2)n1)c1cccc(F)c1)NC1CCCC1	-15	-8	-28	1	0.6	3	0.9	.
Nc1nonc1-c1nc2ccccc2n1CC(=O)N1CCCCC1	-3.4	-1	.	3	-2.7	1	-0.1	4%
NC1=NC[C@H](Cc2ccccc2)N1CCc1cccc(F)c1	0.4	-10	2.9	-14	0.0	-1	0.8	-3%
COc1cc(CN(C(=S)NCC(=O)NC2CCCC2)C2CCCC2)cc(OC)c1OC	-1.4	13	.	-1	3.8	3	0.8	-2%
O=C(/C=C/c1ccco1)Nc1ccc2c(c1)OCO2	1.0	-2	0.6	5	1.5	7	-5.6	.
O=C(CCSc1nc2ccccc2o1)N1CCOCC1	1.8	6	.	-2	2.1	2	0.1	12%
COCCOC(=O)C1=C(C)NC2=C(C(=O)CC(C)(C)C2)C1c1ccc(N(C)C)cc1 (stereo not given)	-1.9	2	10	33	-3.1	-1	-0.5	3%
CC(C)CC(=O)N1CCN(S(=O)(=O)c2ccc3ccccc3c2)CC1	-0.5	1	.	-17	2.6	.	-0.8	-1%
COc1ccc(CNCc2ccc3c(c2)OCO3)cc1Br	-5.6	-16	3.0	-3	-1.9	-2	-1.0	-6%
COCC(=O)Nc1ccc(C(C)C)cc1	?	-24	1.6	-1	-3.3	1	-0.7	-1%
O=C(Nc1ccc(NS(=O)(=O)c2ccccc2)cc1)c1ccccc1Cl	.	.	-1.2	.	-1.5	-4	-0.1	9%
O=C(c1ccccc1)c1ccc2nc(-c3ccc(NC(=O)c4ccccc4Br)cc3)[nH]c2c1	2.1	60*	.	76*	-0.6	.	-2.6	-7%&5%
COc1cc(CC2C(=O)Nc3ccccc32)cc(C)c1O (stereo not given)	-0.4	0	-0.1	-3	2.1	.	-0.7	1%
COC(=O)C(NC(C)=O)(Nc1cccc(C)n1)C(F)(F)F (stereo not given)	-4.2	-14	-1.8	-17	-1.8	1	0.0	11%
O=C1C=C(Nc2cccc3cccnc23)c2ccccc2C1=O	0.3	9	12	101*	0.7	-6	0.2	23µM*
CCOC(=O)CNc1nc(Cl)nc(Nc2ccc(OC)cc2OC)n1	-0.1	-1	2.7	1	-1.0	.	0.6	-5%
CCOc1ccccc1N1CCN(C(=O)C2=CC=CN3CCS(=O)(=O)N=C23)CC1	.	.	-1.0	.	0.8	1	1.6	7%
O=S(=O)(c1ccc(Cl)cc1)N(Cc1ccccn1)Cc1ccccn1	1.1	-12	0.4	10	-0.4	.	0.9	0%
O=C(Nc1ccnn1C1CCN(C2CCC2)CC1)c1cccc(F)c1	4.0	-15	-2.6	-3	1.7	-5	-2.0	.
CCOc1ccc(NC(=O)CN2C(=O)NC3(CCCC3)C2=O)cc1S(=O)(=O)N1CCCCC1	.	.	0.6	.	0.5	-5	-0.3	-10%
CC1Cc2ccccc2N1C(=O)c1cnc2n(c1=O)CCS2 (stereo not given)	8.5	-14	-4.3	11	-5.2	-11	-0.3	5%
O=C(Nc1cccc(Cl)c1)N(CCN1CCOCC1)Cc1cccc(Cl)c1	5.2	12	1.9	-4	2.0	-1	-0.3	-1%
Cc1ccc(CNC(=O)CCn2c(=O)oc3ccccc32)cc1	-1.3	-5	7.7	0	5.6	-1	0.5	-6%
Cc1ccc[n+](CC(=O)c2ccc(Cl)cc2)c1	-2.6	5	1.6	-5	-0.1	.	-0.8	.
CCCCCC1CCC(c2ccc(C(N)=O)cc2)CC1 (stereo not given)	-2.0	-7	.	-4	2.2	0	0.2	-4%
COc1ccc(-c2c(C#N)c(SCC(N)=O)nc3c2CCCC3)cc1	4.8	36	.	-1	0.0	6	0.6	-90%
CC(=O)c1cccc(NC(=O)C(OC(=O)c2cccc(S(=O)(=O)N(C)c3ccccc3)c2)c2ccccc2)c1 (stereo not given)	0.5	-25	2.2	8	3.6	-1	0.1	13%
O=C(CSc1nc(-c2ccccc2)nc2ccccc12)Nc1nccs1	5.3	-8	.	-2	7.1	0	0.0	-29%
CC1(C)Cc2ccccc2/C(=C/C(=O)N2CCCCCC2)N1	?	28	-31	-27	0.2	-5	-0.2	-2%
CCOC(=O)c1nnn(CC(=O)Nc2ccccc2)c1C(=O)OCC	-0.4	-16	0.1	-24	2.0	-5	-0.9	-4%
COc1ccc(CCNC(=O)CCC(=O)Nc2nnc(C(C)C)s2)cc1OC	-2.8	1	.	-2	2.7	-1	1.2	-8%
CC(C)c1ccc(N2C(=O)CC(NNC(=O)c3ccccc3Cl)C2=O)cc1 (stereo not given)	0.7	7	1.1	3	-2.1	-7	-0.8	5%
CC1/C(=N/O)CC(c2ccccc2)NC1c1ccccc1 (stereo not given)	-1.3	10	.	-15	2.9	2	-0.1	-2%
Cc1c(/C(O)=C2/C(=O)C(=O)N(Cc3cccnc3)C2c2ccccn2)cnn1-c1ccccc1 (stereo not given)	8.0	-1	-2.2	-11	-5.2	-4	1.0	-7%
CC(=O)N1c2ccccc2C(=O)C1N1CCCCC1 (stereo not given)	5.1	-3	.	13	0.6	-2	0.9	3%
COc1cccc(N2CCN(c3ccc4nnc(CCC(=O)Nc5ccc(F)cc5F)n4n3)CC2)c1	-2.1	20	0.6	-1	-2.3	2	0.8	6%
O=C(Oc1ccc(Br)cc1C(=S)N1CCOCC1)c1cccc([N+](=O)[O-])c1	-1.0	-7	10	4	-9.0	-4	0.7	-2%
CSCCC(=O)N1CCC(CCC(=O)NC2CC2)CC1	2.2	-13	0.2	-4	0.8	-1	-0.8	.
CC(C)C1C(C#N)=C(N)Oc2n[nH]c(-c3cccs3)c21 (stereo not given)	-0.1	2	.	25	0.6	-2	0.0	8%
COc1ccc(S(=O)(=O)Nc2cccc3c2O[C@H](CN(C)Cc2ccc(C(=O)O)cc2)[C@@H](C)CN([C@H](C)CO)C3=O)cc1	.	.	-17&-0.3	.	5.8	-6	-0.2	-3%
The results go on.
SMILES	RanGTP-Imp inh	T cruzi repl	AF4-AF9 inh	Calb FLC	LANA-H2A inh	Beta cell apopt	A1 inh	Vif TR-FRET
COc1ccc(C2=C/C(=C\c3ccccc3OC(C)=O)C(=O)O2)cc1	35*	-21	-1.4	7	2.4	3	1.4	.
COc1ccc(NC(=O)Cn2nc(Cc3cccnc3)c3ccccc3c2=O)c(OC)c1	4.1	-14	-31	-8	2.8	-6	0.4	1%
COc1cccc(Cn2cc(C)cc(NC(=O)NCc3ccccc3)c2=O)c1	-3.7	-6	-13	-11	23*	9	0.3	.
Cn1cnc(S(=O)(=O)NCc2cccs2)c1	-1.1	0	.	-8	-2.2	-4	-0.1	25%
Cc1nc(CSc2nnc(C)s2)cs1	3.8	-30	-7.5	1	-1.3	-2	-1.4	0%
COc1ccc(CNC(=O)c2ccc(N(C)S(=O)(=O)c3ccc(C)cc3)cc2)cc1	7.7	13	2.3	5	-7.6	-2	-0.1	.
CC(=O)N1c2ccc(S(=O)(=O)N3CCCC3)cc2CC1C(=O)NC(C)C (stereo not given)	0.5	-18	0.2	-2	-0.2	.	0.7	.
CCC(=O)Nc1nnc(C(C)(C)C)s1	1.1	-6	.	-3	-3.3	-1	0.0	-3%
COc1ccc(CCNC(=O)CSc2ccccn2)cc1	.	.	-0.2	.	5.7	3	-0.6	-14%
O=C(O)C1C2C=CC3(CN(Cc4ccco4)C(=O)C13)O2 (stereo not given)	-4.8	-7	-4.6	16	-2.6	-2	0.4	14%
O=C(NCCC1=CCCCC1)c1cc(-c2ccncc2)nc2ccccc12	9.8	19	-1.7	7	-2.3	-15	-0.4	.
COc1cccc(N2C(=O)C3C(C2=O)C2C=CC3C23CC3)c1 (stereo not given)	2.1	-9	.	1	3.6	-2	1.2	2%
COc1cc(C(C)=O)ccc1OCC(=O)OC(C)C(=O)c1ccc(F)cc1 (stereo not given)	.	.	-0.9	.	5.1	-3	1.1	.
COc1ccccc1CNC(=O)C1CCN(S(=O)(=O)c2cccc3nonc23)CC1	-1.7	-10	-8.6	-2	-6.2	1	-0.5	.
Cc1ccc(S(=O)(=O)N2CCC(C(=O)N3CCc4ccccc43)CC2)cc1	0.1	16	-4.8	-1	-8.0	-1	-1.4	1%

Assay outcomes: PubChem, several laboratories
